VDR inhibitor – Inhibitors of the vitamin D receptor (VDR): qHTS; VDR-SRC2-3 peptide fluorescence polarization, 2 h; Vitamin D3 receptor (Homo sapiens), P11473; AID 504847, 2011; actives 0.93% (n = 400,000); Potency, µM, for inactives: max response, negative = inhibition, most hits filed as inhibitors; active means well fitted inhibition curve with a large enough effect; inconclusive means small, poorly fitted or top-dose-only effect, or another doubt; inactive means no such curve, though single readings can be large or run the other way; further: series mostly up to about 120 µM
Target sequence (P11473 whole entry, looked up): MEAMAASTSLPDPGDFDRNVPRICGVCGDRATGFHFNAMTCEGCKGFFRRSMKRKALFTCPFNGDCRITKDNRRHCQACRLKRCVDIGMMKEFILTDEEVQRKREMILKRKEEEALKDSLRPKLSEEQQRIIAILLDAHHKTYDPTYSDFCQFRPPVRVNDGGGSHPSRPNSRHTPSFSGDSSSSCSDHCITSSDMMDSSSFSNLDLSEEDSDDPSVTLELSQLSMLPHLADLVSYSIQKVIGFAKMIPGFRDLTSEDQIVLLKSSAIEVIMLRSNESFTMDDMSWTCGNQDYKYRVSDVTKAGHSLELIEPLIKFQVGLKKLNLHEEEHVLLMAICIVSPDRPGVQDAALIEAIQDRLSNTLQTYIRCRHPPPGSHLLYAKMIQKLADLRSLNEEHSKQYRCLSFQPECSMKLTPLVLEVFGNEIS
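Signal is fluorescence polarization, reporting how far test compounds block the interaction of VDR with the SRC2-3 coregulator peptide after a 2 h room-temperature incubation.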
Numbers without * were called inactive; ? = inconclusive; & = joins results of further samples. On the % scale 0 is the no-effect control and ±100 the full control effect; potency means the concentration at half of the fitted maximal effect.

SMILES	VDR inhibitor
O=C(COC(=O)CSCC(=O)N1CCCCC1)NCc1ccc(F)cc1	-11%
Cc1ccc(S(=O)(=O)N(CC(=O)N2CCN(c3ccc(F)cc3)CC2)C2CCCCC2)cc1	-18%
CCOc1ccc(N/C(N)=N/c2nc(C)c(C)c(=O)[nH]2)cc1	-6%
Cn1ccnc1-c1nc2ccccc2[nH]c1=O	-10%
Cc1ccc(-c2nn(CC(C)(C)C)c3ncnc(N)c23)cc1	-1%
COc1ccccc1C(=O)NCCC(=O)N1CC=C(c2ccccc2)CC1	5%
Cc1ccc(CN(Cc2cc3cccc(C)c3[nH]c2=O)C(=O)N(C)C)cc1	19%
COc1ccc(OC)c(NC(=O)c2c(NCc3cccs3)sc3c2CCCC3)c1	-14%
Clc1ccc(Nc2cc(-c3ccccc3)nc3ncnn23)cc1	12%
Cc1noc(NS(=O)(=O)c2ccc(NC(=O)CSc3nc4ccccc4[nH]3)cc2)c1C	1%
Cc1noc(C)c1S(=O)(=O)N1CCN(C(c2ccccc2)c2ccc(Cl)cc2)CC1 (stereo not given)	-5%
CCc1ccc(C2c3c(-c4ccccc4)n[nH]c3C(=O)N2c2ccc(C(=O)O)cc2)cc1 (stereo not given)	?

Taken from above:
Under VDR inhibitor, Cc1noc(NS(=O)(=O)c2ccc(NC(=O)CSc3nc4ccccc4[nH]3)cc2)c1C shows 1%
Under VDR inhibitor, Cc1ccc(CN(Cc2cc3cccc(C)c3[nH]c2=O)C(=O)N(C)C)cc1 shows 19%
Under VDR inhibitor, COc1ccc(OC)c(NC(=O)c2c(NCc3cccs3)sc3c2CCCC3)c1 shows -14%

Continuation:
SMILES	VDR inhibitor
Cc1ccc(NS(=O)(=O)c2cc(C(=O)N3CCN(CCO)CC3)ccc2C)cc1	1%
Cc1ccc(S(=O)(=O)N2CCN(C(=O)COC(=O)CCOc3ccccc3)CC2)c(C)c1	-8%
CCOc1ccc(S(=O)(=O)N2CCN(C(=O)COc3ccc(Br)cc3)CC2)cc1	19%
CC1=CCC[C@H]2[C@H](C1)C(=O)C[C@@H](C)[C@]2(C)CC/C(=C/CO)CO	-9%
C=CCNC(=O)c1onc(CSc2ccccc2CC)c1C(=O)O	5%
CCN(CC)c1ccc2cc(-c3nc(-c4ccc(Cl)cc4Cl)cs3)c(=O)oc2c1	-5%
CCN(Cc1ccccc1)C(=O)C(C)OC(=O)c1cc(S(=O)(=O)Nc2c(C)n(C)n(-c3ccccc3)c2=O)ccc1C (stereo not given)	-3%
COC(=O)c1ccc(Oc2ccc3nnc(C)n3n2)cc1	-11%
O=C1CCc2cc(S(=O)(=O)NCc3ccccc3Cl)cc3c2N1CC3	0%&8%
CCn1cnc2cc(NCc3cccc(OC)c3O)ccc21	17%
CCOC(=O)/C(C#N)=C/c1cccn1-c1ccc(Cl)cc1	7%
Oc1ccc(/C=N/Nc2ncnc3c2ncn3Cc2ccccc2)cc1O	-4%
CCCCCC(=O)Nc1ccc(S(=O)(=O)Nc2nccc(C)n2)cc1	3%
Cc1nnsc1-c1nnc(SCC(=O)c2ccc(C#N)cc2)n1C1CC1	-7%
CCC(=O)N(Cc1cc2ccc(C)cc2n2nnnc12)C1CCCCC1	10%
O=C(Cn1cc([N+](=O)[O-])cn1)N1CCc2ccccc21	-19%
CCC(CO)Oc1cc(NCc2cccc(O)c2)c2ncn(C(C)C)c2c1 (stereo not given)	2%
O=C(CC(C(=O)O)C1CCCO1)Nc1cccc(C(F)(F)F)c1 (stereo not given)	11%
COc1cc(/C=C2\SC(=S)N(CCC(=O)Nc3ccccn3)C2=O)cc(OC)c1OC	?
COCCOC(=O)c1c(NC(=O)CN2CCOCC2)sc(C(N)=O)c1C	28%
COc1ccc(-c2ccc(SCC(=O)c3ccc(F)cc3)nn2)cc1OC	1%
CSc1ncccc1C(=O)NC(C)CCc1ccccc1 (stereo not given)	?
CCc1nc(SCC(=O)Nc2ccc(OC)cc2[N+](=O)[O-])n[nH]1	8%
Cc1ccc(C(=O)NCc2ccc3c(c2)OCO3)cc1S(=O)(=O)N1CCCCC1	-4%
Cc1cccc(C)c1NC(=S)N=Nc1c(O)n(C)c2ccc(S(=O)(=O)N3CCOCC3)cc12	-3%
O=C(NNc1cc(Cl)ccc1Cl)c1cccnc1Cl	-5%
CCc1ccc(C2=NN(c3ccc(S(N)(=O)=O)cc3)C(c3ccc(F)cc3)C2)cc1 (stereo not given)	-8%
Cc1ccc(NC(=O)c2nc(S(=O)(=O)Cc3ccccc3)ncc2Cl)cc1	25µM*
O=C(c1cn(-c2ccccc2)nc1-c1ccc(F)cc1)N1CCCCC1	-7%
COc1cc(S(=O)(=O)NCc2ccncc2)c(OC)cc1Cl	-7%
CCCCNC(=O)Cc1ccc(Br)cc1	-10%
COc1cc(/C=N/NC(=O)C2COc3ccccc3O2)cc(OC)c1OC (stereo not given)	-28%
Nc1nc(SCC(=O)N2CCCCC2)[nH]c(=O)c1NC(=O)c1ccccc1F	-15%
Cc1ccc(-c2cc(-c3ccccc3)nc(N/N=C/c3cccnc3)n2)cc1	-3%
CCOC(=O)c1csc(NC(=O)CN2CCCCC2)n1	6%
O=C(Cn1cnc2cc([N+](=O)[O-])ccc2c1=O)Nc1ccc2c(c1)CCC2	8%
NNC(=O)c1ccccc1CO	-11%
CCOC(=O)c1cnn(-c2ncnc3sc4c(c23)CCC4)c1N	1%
Cn1c(C(=O)OC(C(=O)NC(C)(C)C)c2cccnc2)cc2sccc21 (stereo not given)	2%
Cc1noc(C)c1C(=O)N1CCC2(CCN(Cc3ccncc3)CC2)CC1	-11%
COc1ccc2[nH]c3c(NCCC4=CCCCC4)ncnc3c2c1	4%
S=C(NCCNC(=S)Nc1ccccc1Cl)Nc1ccccc1Cl	-3%
COc1cc2cc(CCCOC(=O)c3cccc(Br)c3)oc(=O)c2cc1OC	-13%
CCOC(=O)C1CCN(C(=O)c2cccc(S(=O)(=O)Nc3ccc(C)cc3C)c2)CC1	3%
COc1ccc(NC(=O)c2cc(-c3ccccc3F)no2)cc1	11%
COC(=O)c1c(C)[nH]c(C)c1C(C)=O	10%
Cc1ccc(CNC(=O)Cc2ccc(-n3cccc3)cc2)cc1	-1%
Cc1cccc(NCc2nc3ccccc3n2C)c1	-16%
COc1cccc2cc(-c3nc(-c4ccccc4)c(C)s3)c(=O)oc12	-24%
Cn1c(/C=C/c2ccccc2)nc2ccccc2c1=O	-19%
Cc1nc(SCc2cccc(Oc3ccccc3)c2)n[nH]1	-3%
O=C(CSc1nc2c(oc3ccccc32)c(=O)n1-c1ccccc1)Nc1ccc(F)c(Cl)c1	-15%
Cc1ccc(Cl)cc1NC(=O)c1csnn1	-11%
CCC(=O)Nc1c2c(nn1-c1cccc(Cl)c1)CSC2	-18%
CCCC1Cc2nc(N3CCCCC3)c(C#N)cc2CO1 (stereo not given)	3%
Cc1nc(-c2nc(-c3c(C(=O)NN)noc3C)cs2)cs1	1%
COc1cccc(CNC(=O)CCc2c(C)nc3c(c(C)nn3-c3ccc(C)c(C)c3)c2C)c1	0%
CS(=O)(=O)c1ccc2nc(NC(=O)CS(=O)(=O)c3ccc(Cl)cc3)sc2c1	12%
COCCCn1cc(C(=O)c2cc(Br)ccc2O)cc(C#N)c1=O	5%
N#CCc1nn(-c2ccccc2)c(N)c1C#N	9%

Reprinted at random: 3 entries already listed, in no set order.
SMILES	VDR inhibitor
COc1cccc(CNC(=O)CCc2c(C)nc3c(c(C)nn3-c3ccc(C)c(C)c3)c2C)c1	0%
CCC(=O)Nc1c2c(nn1-c1cccc(Cl)c1)CSC2	-18%
COc1cccc2cc(-c3nc(-c4ccccc4)c(C)s3)c(=O)oc12	-24%

(cont.)
SMILES	VDR inhibitor
COc1ccccc1-c1nnc(SCC(=O)Nc2ccccc2)o1	3%
CCOC(=O)C(=CNc1cc(C)ccn1)C(=O)OCC	-17%
O=C(NC1CCCC1)c1csc2c1CCCC2	11%
COC(=O)C1=C(CS(=O)(=O)c2ccccc2)NC(=O)NC1c1ccc(O)cc1 (stereo not given)	-6%
COc1cccc(NC(=O)N2CCCC2C(=O)NC2CCCCC2)c1 (stereo not given)	0%
Cc1ccc(SC[C@H](Cc2ccccc2)N2CCN(CCc3ccccc3)CCC2=O)cc1	-10%
COc1ccc(S(=O)(=O)CCc2nnc(NC(=O)c3ccc(F)cc3)s2)cc1	7%
Cc1ccc(C(=O)OC(C)C(=O)Nc2ccc(Cl)cn2)s1 (stereo not given)	2%
O=C(NNC(=O)c1cc(-c2cccc(Br)c2)nc2ccccc12)c1csc(N2CCOCC2)n1	?
Cc1ccc2nc(COc3ccc(N(C)S(=O)(=O)c4ccccc4)cc3)cc(=O)n2c1	-10%
CCOc1nc(C)nc(NC(=O)NS(=O)(=O)c2ccccc2Cl)n1	1%
CCc1cc(Cn2nc(-c3ccccc3)cc2C(=O)NCc2ccccc2OC)on1	-20%
Cc1nc(C)c(-c2ccc(SCc3ccc([N+](=O)[O-])cc3)nn2)s1	-13%
O=C(NCC(c1cccnc1)N1CCN(c2ccc(F)cc2)CC1)OCc1ccccc1 (stereo not given)	5%
CCN(CC)CCn1c(O)c(N=O)c2ccccc21	-4%
CCOC(=O)c1c(C)[nH]c(C)c1C(=O)CSc1nc2ccccc2c(=O)n1-c1ccc(C)cc1	-5%
O=C(Nc1ccc(F)c(Cl)c1)C1CCCN(C2=NS(=O)(=O)c3ccccc32)C1 (stereo not given)	-19%
Cc1cccc(C)c1NC(=O)C1C2C=CC(C2)C1C(=O)O (stereo not given)	2%
COc1cccc(C(=O)OCC(=O)N2CCc3ccccc3C2)c1OC	-9%
COc1ccccc1-c1c(C)nn2c(N3CCN(c4ccc(Cl)cc4)CC3)cc(C)nc12	-9%
COc1ccc(C(=O)OCC2CC(c3ccccc3)=NO2)cc1OC (stereo not given)	?
CN(C(=O)C(C)(C)C)c1ccc(OCC(=O)N2CCc3ccccc3C2)cc1	12%
CC1(C)Oc2ccc3ccc(=O)oc3c2C(/C=N/O)=C1Cl	0%
Cc1cc(O)c(C2(C(F)(F)F)NCCNC2=O)cc1C (stereo not given)	7%
CCN(Cc1ccccc1)C(=O)CN1C(=O)COc2ccc(S(=O)(=O)N3CCOCC3)cc21	1%
CN(C)c1cccc(NC(=O)c2cccc3ccccc23)c1	-15%
O=C1c2cccc3cccc(c23)C(=O)N1CCN1CCN(C(=S)Nc2ccccc2)CC1	9%
CC(=O)NC(=S)Nc1cccc2c(C)cc(C)nc12	-6%
COc1ccc(NC(=O)c2ccc(C(=O)Nc3ccc(OC)cc3OC)cc2)c(OC)c1	7%
COc1ccc(-c2nsc(NC(=O)COc3ccc(C)c(C)c3)n2)cc1	-3%
COc1ccc(-c2cn(-c3cccc(C)c3)c(=O)[nH]2)cc1OC	-2%
CCOc1ccccc1NC(=O)NCCN1CCCCC1	1%
COc1cccc(Cn2cccc(NC(=O)NC3CCCCC3)c2=O)c1	3%
COCCn1c(=O)c(-c2ccc(Cl)cc2)nc2cnc(OCc3ccccc3)nc21	-5%
CCOC(=O)C1(CC2CCCCO2)CCN(C(=O)Nc2ccc(C)c(C)c2)CC1 (stereo not given)	15%
CCCCc1nnc(NC(=O)CN(C)S(=O)(=O)c2ccc(C)cc2)s1	-27%

Some of the entries so far, bar-delimited:
SMILES | VDR inhibitor
CC(=O)NC(=S)Nc1cccc2c(C)cc(C)nc12 | -6%
CCOC(=O)C1(CC2CCCCO2)CCN(C(=O)Nc2ccc(C)c(C)c2)CC1 (stereo not given) | 15%
COc1ccc(-c2nsc(NC(=O)COc3ccc(C)c(C)c3)n2)cc1 | -3%
COc1ccc(NC(=O)c2ccc(C(=O)Nc3ccc(OC)cc3OC)cc2)c(OC)c1 | 7%

More entries:
SMILES	VDR inhibitor
COc1ccc(CCNC(=O)CN(c2ccccc2OC)S(C)(=O)=O)cc1	-11%
Cc1ccc(S(=O)(=O)NC2CC(C)(C)NC(C)(C)C2)cc1C	2%
O=C(/C=C/c1cccc(F)c1)NC1CC1	0%
O=c1cc(CO)oc(CN2CCN(c3ccccc3F)CC2)c1O	23%
CCOC(=O)C1C(=O)C(=O)N(C(C)C)C1C(=O)OCC (stereo not given)	-5%
O=C(NCc1ccccn1)Nc1ccc(F)c(Cl)c1	11%
CC(C)c1nc2ccc(C(=O)NCCCN3CCN(c4ccc(F)cc4)CC3)cc2o1	12%
Nc1ccc(CCNc2ncnc3c2ncn3C2OC(CO)C(O)C2O)cc1 (stereo not given)	7%
O=C(Nc1cccc(C(=O)N2CCN(c3ccccc3F)CC2)c1)c1nsc2ccccc12	2%
COc1ccc(NC(=O)CSc2n[nH]c(N)n2)c([N+](=O)[O-])c1	-6%
Cc1nnc(SCC(=O)N(C)C2CCCCC2)n1C	-4%
CCOCCCNC(=O)C(c1ccccc1)N1Cc2ccccc2C1=O (stereo not given)	29%

Four of the entries above in order of their number in VDR inhibitor, falling:
SMILES	VDR inhibitor
CCOCCCNC(=O)C(c1ccccc1)N1Cc2ccccc2C1=O (stereo not given)	29%
O=C(NCc1ccccn1)Nc1ccc(F)c(Cl)c1	11%
Nc1ccc(CCNc2ncnc3c2ncn3C2OC(CO)C(O)C2O)cc1 (stereo not given)	7%
O=C(/C=C/c1cccc(F)c1)NC1CC1	0%

More structures follow:
SMILES	VDR inhibitor
O=C(COC(=O)CCC(=O)c1cccs1)Nc1cc(S(=O)(=O)N2CCOCC2)ccc1Cl	2%
Cc1cn([C@H]2C[C@H](O)[C@@H](CCC(=O)NCc3ccccc3)O2)c(=O)[nH]c1=O	6%
CCCCN(C(=O)C1=COCCO1)c1c(N)n(CCCC)c(=O)[nH]c1=O	-14%
CC(C)(NC(=O)c1ccccc1)c1nc2ccccc2s1	?
O=C(O)CC(CC(=O)Nc1ccc(Oc2ccccc2)cc1)c1ccccc1 (stereo not given)	-22%
COc1ccc(Cl)cc1NC(=O)CN(C)C(=O)c1ccc2c(c1)OCCO2	16%
Cc1[nH][nH]c(=O)c1N=Nc1ccc(F)cc1	-4%
CCOc1ccc(CN(C)CC(=O)c2c(N)n(Cc3ccccc3)c(=O)n(CC)c2=O)cc1OC	-18%
Cc1ccccc1OCCn1cc(C(=S)N2CCCC2)c2ccccc21	1%

Screening results (PubChem BioAssay)

Only part of the results is shown (hit frequency here may not be typical).
